Assay outcomes as filed in PubChem BioAssay.
YopH PTP inh – blocks Yersinia enterocolitica YopH tyrosine phosphatase; fluorescence Ex485/Em525; AID 898; 140,000 tested, 0.16% active; inhibition, %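 (about 10 µM by stock and volumes)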;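 active means inhibition of 50% or more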;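 further: controls were vehicle for no effect and minimum signal wells for full effect; inactives centre near -20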
Mtb bLac sens – beta-lactam sensitization of Mtb H37Rv; M. tuberculosis H37Rv growth with meropenem, percent inhibition; hits of this screen are not shown here; inhibition, % at 25 µM; 330,000 tested, 0.27% active; AID 434955;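 active means about 74% or more and at least 40 points above the plate without the antibiotic, then above 30% in a dose series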;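 further: growth measured after seven days incubation then overnight dye step; 0% = bacteria only wells and 100% = bacteria with antibiotic; twin plates without the antibiotic show which effects depend on it; some results filed as inactive read as strong as hits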
Arbovirus inh – arbovirus infection inhibition; arbovirus infection cell-based antiviral screen; inhibition, % at 10 µM; 200,000 tested, 0.37% active; AID 1251;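 active means inhibition from about 30%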;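 further: bluetongue infection of BSR cells; cell survival read as ATP light after 72 h; 0% = infected wells without compound and 100% = uninfected wells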
Mtb growth – M. tuberculosis H37Rv growth inhibitors, H37Rv strain (AID 1626). M. tuberculosis H37Rv growth inhibition; higher % means a stronger effect. 220,000 tested, 0.95% active. one-dose inhibition, % at 10 µM; IC50 in µM for titrated hits;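 active means confirmed in a dose series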;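 further: bacteria incubated seven days before Alamar blue readout; 0% = bacteria only wells and 100% = bacteria with antibiotic wells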
RecA intein inh – Mtb RecA intein splicing inhibition; inhibition, %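 (about 9 µM by stock and volumes)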; P9WHJ3; cell-free RecA intein splicing, fluorescence; 290,000 tested, 0.75% active; in the data active means inhibition above about 30%;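 further: 0% = vehicle wells and 100% = reference inhibitor control wells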
Target sequence (P9WHJ3 whole entry, looked up): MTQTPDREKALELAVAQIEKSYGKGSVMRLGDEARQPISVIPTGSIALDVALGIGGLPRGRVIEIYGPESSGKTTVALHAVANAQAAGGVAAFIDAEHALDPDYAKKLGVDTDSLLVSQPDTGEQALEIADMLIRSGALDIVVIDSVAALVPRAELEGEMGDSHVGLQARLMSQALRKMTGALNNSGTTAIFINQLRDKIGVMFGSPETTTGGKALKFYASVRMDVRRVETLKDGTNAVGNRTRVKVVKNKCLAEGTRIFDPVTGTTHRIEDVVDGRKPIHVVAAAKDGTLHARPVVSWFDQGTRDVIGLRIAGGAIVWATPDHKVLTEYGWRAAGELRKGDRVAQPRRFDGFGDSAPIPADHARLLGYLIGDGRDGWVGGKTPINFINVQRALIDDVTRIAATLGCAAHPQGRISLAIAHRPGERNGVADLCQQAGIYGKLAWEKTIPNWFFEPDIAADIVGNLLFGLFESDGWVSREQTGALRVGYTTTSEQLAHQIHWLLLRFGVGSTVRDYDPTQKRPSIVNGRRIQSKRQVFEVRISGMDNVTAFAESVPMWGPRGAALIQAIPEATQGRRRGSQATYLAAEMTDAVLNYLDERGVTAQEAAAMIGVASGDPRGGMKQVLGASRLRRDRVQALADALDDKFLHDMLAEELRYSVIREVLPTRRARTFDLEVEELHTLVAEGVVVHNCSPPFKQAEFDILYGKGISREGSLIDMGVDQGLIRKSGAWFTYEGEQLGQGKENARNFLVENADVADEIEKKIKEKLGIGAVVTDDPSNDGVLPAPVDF
Arbovirus inh repeat – second read-out of Arbovirus inh, no call of its own (marks repeat the call); inhibition, %; measured here: 10K subset replicate screen; many hits read low in the repeat;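 first of two repeat runs on a subset; 0% = infected and 100% = uninfected wells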
Active calls of the source: *; nt = not tested or not shown.

SMILES	YopH PTP inh	Mtb bLac sens	Arbovirus inh	Mtb growth	RecA intein inh	others
COC(=O)[C@@]1(Cc2ccc(F)cc2)[C@H]2c3cc(C(=O)N(C)C)n(CCc4ccc(OC)c(Br)c4)c3C[C@H]2CN1C(=O)c1ccccc1	-18	60	-20	nt	17
CN(C(=O)c1ccc(S(=O)(=O)c2cccc(Cl)c2)c([N+](=O)[O-])c1)C1CCCCC1	-16	9	-33	6%	35*
CCn1c(SCC(=O)Nc2ccc(OC)c(OC)c2)nnc1-c1cnccn1	nt	1	nt	nt	0.8
COc1cc(/C=C/C(=O)Nc2nnc(C(C)(C)C)s2)cc(OC)c1OC	-5	3	31*	1%	-4.9
O=C(O)CCn1c(C2CCCCC2)nc2ccccc21	-29	7	0	7%	1.2
COc1ccc(-c2csc(NC(=O)CCn3cnc4ccccc4c3=O)n2)cc1OC	-16	10	-5	-11%	2.7
CC(C)OCCCNC(=O)C1CC(=O)N(CCc2ccc(F)cc2)C1 (stereo not drawn)	nt	-4	nt	nt	-1.2
COc1cc(S(=O)(=O)N2CCN3CCCC3C2)ccc1-n1cnnn1 (stereo not drawn)	-12	-1	6	-1%	-0.9
O=C(Nc1ccccc1)C1CCOC1=O (stereo not drawn)	nt	-1	nt	nt	0.8
O=C(COC(=O)c1ccc(S(=O)(=O)NCc2ccco2)cc1)NCCC1=CCCCC1	-46	-1	5	6%	-4.0
Cn1ncc2c(Nc3ccc(Cl)cc3)ncnc21	nt	-3	nt	nt	-2.7
O=C(C[n+]1cc(-c2ccc(Br)cc2)n2c1CCCCC2)c1ccccc1	nt	3	-2	0%	-6.5
O=C(N[C@@H](Cc1ccccc1)C(=O)N1CCC2(CC1)NCCc1[nH]cnc12)c1cccc(Br)c1	nt	-4	nt	nt	1.7
O=C(O)C1Sc2[nH]c(=O)sc2C2c3cc(Br)ccc3OC(=O)C12 (stereo not drawn)	nt	17	nt	-4%	-3.8
COc1ccc(C(=O)Nc2ccc(C(=O)OCC(=O)c3cccc4ccccc34)cc2)cc1	-43	5	-4	-5%	-3.5
COc1ccccc1N1C(=S)N=C(Nc2c(C)cccc2C)C12CCCC2	nt	-5	nt	0%	5.5
NC(=S)c1ccc(C(N)=S)o1	-22	3	10	-11%	2.4
Cc1nc(C)c(-c2ccc(SCC(=O)Nc3ccc(C)c(Cl)c3)nn2)s1	nt	21	nt	nt	-5.4
O=C(NCCCn1ccnc1)C(=O)NCC1OCCCN1S(=O)(=O)c1ccc(F)cc1 (stereo not drawn)	nt	-12	0	-3%	1.5
Oc1ccc(Br)cc1C=Nc1ccc2[nH]ncc2c1	-21	0	-10	-8%	8.1
CCN(CC)c1ccc(NC(=O)c2cc(OC)cc(OC)c2)c(C)c1	-112	46	-16	nt	-2.3
COc1ccc(NC(=O)c2nn(C)cc2[N+](=O)[O-])cc1	nt	-11	nt	-3%	-6.0
COC(=O)c1ccc(S(=O)(=O)c2ccc(C(=O)OC)s2)s1	-25	-3	0	21%	nt
CCCCN(C(=S)NC(=O)c1ccccc1)c1c(N)n(Cc2ccccc2)c(=O)[nH]c1=O	6	-2	-1	5%	1.3
Cc1cc(=O)n2nc(N3CCCC3C(=O)NCCCN3CC(C)CC(C)C3)sc2n1 (stereo not drawn)	-41	-3	5	-1%	-3.5
CC1CC1c1ccc(/C=C(\C#N)C(=O)Nc2ccc(Cl)cc2Cl)o1 (stereo not drawn)	-21	7	-1	nt	-18
CC12CN(NC(=O)c3ccccc3F)C3(C#N)CC1CCC23C (stereo not drawn)	nt	-3	0	-5%	-2.6
CCN(CC)CCCn1c2c(c(SCC(=O)Nc3ccc4c(c3)OCO4)nc1=O)CCC2	nt	-9	nt	nt	-1.3
CC(=O)c1ccc(OCCNS(=O)(=O)c2ccc(-n3cnnn3)cc2)cc1	nt	3	nt	nt	-1.0
O=C(O)C1Nc2c(Cl)cc(Cl)cc2C2C=CCC12 (stereo not drawn)	nt	-13	nt	nt	5.8
N#CC(c1cccc(C(F)(F)F)c1)(c1ncc(C(F)(F)F)cc1Cl)N1CCOCC1 (stereo not drawn)	-26	-7	-6	0%	11
CC1CCN(C(=O)CN(c2ccc(Cl)c(C(F)(F)F)c2)S(C)(=O)=O)CC1	-29	8	3	-12%	-1.4
Cc1cc(NC(=O)CSc2nc3ccccc3c(=O)n2Cc2ccc(F)cc2)no1	-31	4	-3	0%	-1.5
CCCCN(C)C(=O)C1CCN(Cc2cccnc2)CC1	nt	4	nt	nt	2.7
CC(C)(C)CC(C)(C)NC(=S)NC1CCN(Cc2ccccc2)CC1	-25	3	16	-16%	-7.2
CN1C(=O)NC(NS(=O)(=O)c2ccc(N)cc2)(C(F)(F)F)C1=O (stereo not drawn)	nt	-3	2	1%	-1.2
COC(=O)c1ccc(/C=C/C(=O)O)cc1	nt	0	nt	-1%	0.6
COc1ccc(S(=O)(=O)N2CCN(C(=O)CCC3CCCC3)CC2)cc1	-15	8	6	-5%	2.7
CCOC(=O)C1=C(O)C(Nc2nccs2)(C(F)(F)F)N=C1C (stereo not drawn)	-21	-6	0	nt	-1.0
COc1ccc(-c2nnc(CSc3nc4ccccc4c(=O)n3C)o2)cc1OC	-8	8	15	-3%	0.7
CCc1ccc(NC(=O)Cn2ncc3c4ccccc4n(C)c3c2=O)cc1	nt	1	nt	-1%	1.2
CC(=O)OCCNc1cc(N2CCN(C)CC2)c2noc3c2c1C(=O)c1ccccc1-3	45	nt	-13	7%	nt	Arbovirus inh repeat=-6
COc1ccccc1/C=C/CN1CCCC(CCC(=O)NCc2ccccc2F)C1 (stereo not drawn)	nt	59	1	43%	3.5
CC1(C)S[C@@H]2[C@H](NC(=O)COc3ccccc3)C(=O)N2C1C(=O)OCc1ccccc1 (stereo partly drawn)	nt	-6	nt	-10%	13
CC(C)OCCCNC(=O)C(=O)NCCCOC(C)C	-38	-2	-3	2%	0.1

Quoted at random: 5 entries already listed
SMILES	YopH PTP inh	Mtb bLac sens	Arbovirus inh	Mtb growth	RecA intein inh	others
CC1(C)S[C@@H]2[C@H](NC(=O)COc3ccccc3)C(=O)N2C1C(=O)OCc1ccccc1 (stereo partly drawn)	nt	-6	nt	-10%	13
CC(=O)OCCNc1cc(N2CCN(C)CC2)c2noc3c2c1C(=O)c1ccccc1-3	45	nt	-13	7%	nt	Arbovirus inh repeat=-6
CCc1ccc(NC(=O)Cn2ncc3c4ccccc4n(C)c3c2=O)cc1	nt	1	nt	-1%	1.2
CC(C)OCCCNC(=O)C(=O)NCCCOC(C)C	-38	-2	-3	2%	0.1
COc1ccc(S(=O)(=O)N2CCN(C(=O)CCC3CCCC3)CC2)cc1	-15	8	6	-5%	2.7

(more compounds)
SMILES	YopH PTP inh	Mtb bLac sens	Arbovirus inh	Mtb growth	RecA intein inh	others
COC(=O)[C@H](Cc1ccccc1)NC(=O)N1CC(C)OC(C)C1 (stereo partly drawn)	-39	-9	4	-5%	nt
CN(CC(=O)Nc1cccc(F)c1)C(=O)c1ccccc1OCC(=O)Nc1cccc(C(F)(F)F)c1	nt	-9	nt	nt	-1.6
COc1ccc(NC(=O)Cc2nnc(SCC(=O)NC3CCCC3)n2C)cc1	nt	-7	nt	nt	-3.0
Cn1c(Cl)c(C(=O)Nc2ccccc2)c2ccccc21	-40	2	-2	7%	nt
COc1cccc(OCc2nc(-c3ccc(Br)o3)no2)c1	nt	-3	2	5%	11
Cc1cc2ccccc2c(=O)n1CC(=O)Nc1ccc2c(c1)OCO2	-13	-6	4	4%	-2.2
O=C(O)/C=C\C(=O)NNC(=O)c1cc(-c2ccccc2)n[nH]1	nt	-3	nt	-2%	2.4
CC(=Nc1ccccc1)Nc1ccccc1	-22	-6	4	4%	nt
Cc1nnc2c(NCCc3ccccc3)nc3ccccc3n12	nt	3	nt	nt	-0.4
O=C(NCCN1C(=O)CSC1=O)c1ccccc1	-34	-4	-4	-6%	nt
O=C(NC1=NCCS1)c1ccccc1OCc1ccc(F)cc1	nt	-1	10	17%	-0.6
Cc1nc2ccccc2c(=O)n1-c1ccc(Cl)cc1[N+](=O)[O-]	nt	0	-1	6%	-3.6
CCCCCC/C=C/c1ccc(OC)c([C@H]2[C@H]3C=CC[C@@H](C)[C@@H]3C(=O)N2Cc2ccccc2)c1	nt	6	nt	-2%	0.0
CCOC(=O)C1=C(C)NC(=S)NC1c1ccc(OCC(=O)N2CCCCC2)cc1 (stereo not drawn)	nt	-12	nt	nt	1.0
Cc1cc(NC(=O)CSc2nc3sc4c(c3c(=O)n2C)CCCC4)no1	-3	14	5	nt	-7.3

Three structures already listed, ordered by SMILES length, rising.
SMILES	YopH PTP inh	Mtb bLac sens	Arbovirus inh	Mtb growth	RecA intein inh	others
CC(=Nc1ccccc1)Nc1ccccc1	-22	-6	4	4%	nt
O=C(NC1=NCCS1)c1ccccc1OCc1ccc(F)cc1	nt	-1	10	17%	-0.6
CCOC(=O)C1=C(C)NC(=S)NC1c1ccc(OCC(=O)N2CCCCC2)cc1 (stereo not drawn)	nt	-12	nt	nt	1.0

Other records:
SMILES	YopH PTP inh	Mtb bLac sens	Arbovirus inh	Mtb growth	RecA intein inh	others
Cc1ccsc1/C=C(\C#N)C(=O)NC1CCS(=O)(=O)C1 (stereo not drawn)	nt	12	9	-2%	2.1
O=C(NCC1(c2ccccc2)CCCC1)C(=O)NCC1(c2ccccc2)CCCC1	-4	nt	-3	-4%	1.0
COc1ccccc1Nc1nc(N)nc(CSC(=S)N2CCN(c3ccccc3)CC2)n1	nt	38	0	4%	4.6
Cc1ccc(NC(=S)NNc2ccc([N+](=O)[O-])cc2S(=O)(=O)Nc2ccccc2C(=O)O)cc1C	-5	1	11	-2%	23
O=C(NNC(=O)C1CC1c1ccccc1)c1ccccc1[N+](=O)[O-] (stereo not drawn)	-31	-6	5	0%	-0.2
COc1ccc(NC(=O)c2ccccc2NC(=O)c2ccccc2C(=O)O)c(OC)c1	nt	0	nt	nt	0.2
COc1ccc(OCCN2C(=O)c3ccccc3C2=O)c([N+](=O)[O-])c1	nt	-7	nt	nt	-0.2
COc1ccccc1C(=O)N1CCN(c2cccc(C(F)(F)F)c2)CC1	-49	-7	-20	nt	3.9
Cc1cc(C)n(/N=C/c2ccc(O)cc2)c(=O)c1C#N	nt	-4	-10	0%	0.0
Cc1ccccc1OCC(=O)N1CCCc2ccccc21	-18	-1	-4	11%	4.4
COc1ccc(NC(=O)CCCC2CCCCC2)c(OC)c1	nt	27	nt	nt	0.5
O=C(O)COCC(=O)Nc1ccc2c(c1)ncn2CCc1ccccc1	nt	3	nt	nt	-3.4
O=C(COc1ccc(S(=O)(=O)N2CCCCC2)cc1)N1CCN(Cc2ccccc2)CC1	-26	-8	5	8%	0.9
CC(OCCN1CCCC1)(c1ccc(F)cc1)c1ccc(F)cc1	-5	-4	-26	6%	3.4
NNC(=O)CN1C(=O)Nc2ccc(Cl)cc2C1c1ccccc1 (stereo not drawn)	nt	6	nt	nt	1.2
CCc1cccc(NC(=O)CCSCCC(=O)Nc2cccc(CC)c2)c1	-10	21	-2	4%	-3.0
COc1ccc(C(=O)Nc2ccc(C(=O)Nc3nccs3)cc2)cc1[N+](=O)[O-]	-30	-10	-3	-4%	-0.3
COc1ccc(CNC(=O)C2CC(=O)N(c3ccc(OCC(=O)N4CCCCC4)cc3)C2)cc1 (stereo not drawn)	28	-4	1	5%	11
COc1cccc(CN(C)C(=O)c2cccnc2SC)c1OC	nt	2	10	3%	0.1
Cc1cc(N=Cc2c(O)n(-c3ccc(C)c(C)c3)c(=O)c3ccccc23)no1	-18	nt	-12	-2%	nt
CCN(CC)Cc1cc(C(=O)O)c(-c2ccccc2)o1	nt	-10	nt	nt	-1.1
CC(C)(C)NC(=O)C(=O)NNC(=O)C12CC3CC(CC(C3)C1)C2	-31	-1	-10	nt	-2.5
Cc1c(N2CCCC2)cc2c(c1N)C(C)(C)CC2(C)C	nt	-1	nt	nt	2.9
COc1cc(CNCCO)cc(Br)c1OCc1ccccc1	nt	-6	-31	1%	3.5
CC(=O)C1=C(O)C(=O)N(Cc2ccccc2)C1c1ccc(Br)cc1 (stereo not drawn)	nt	-3	nt	nt	1.2
COc1ccccc1N/N=C/c1c(CO)cnc(C)c1O	-62	1	-6	4%	-2.5
CCOC(=O)C(NC(=O)c1cccnc1)(Nc1cccc(C)n1)C(F)(F)F (stereo not drawn)	-56	-5	13	0%	-3.1
CC(Cc1ccccc1)NC(=O)/C=C/c1ccc([N+](=O)[O-])cc1 (stereo not drawn)	-24	3	-2	6%	5.5
O=C(Nc1ccccc1C(=O)NCc1ccco1)NC1CCCCC1	-25	1	2	-4%	4.6	Arbovirus inh repeat=-5
CCc1ccc(OCCCC(=O)O)c(Br)c1	-17	-6	-2	-8%	0.5
COC(=O)c1ccc(C(=O)N(CCN(C)C)c2nc3c(Cl)cccc3s2)cc1	nt	2	-5	5%	1.8
CCSc1nnc(NC(=O)CN(C)S(=O)(=O)c2ccc(F)cc2)s1	-32	-7	5	-8%	0.9
CC(C)(C)C(=O)CC(=O)Nc1ccc(Cl)c(N)c1	-28	12	2	-9%	-5.7

These rows are one share of the data; rates above refer to the full screens.
